Bioassay records deposited in PubChem BioAssay by Fisher Drug Discovery Resource Center.
NPYLR7 ag: mosquito NPYLR7 agonism; HEK293T NPYLR7/Galpha15, GCaMP6s calcium fluorescence; activation, % at 10 µM; hit rate 0.15% among 270,000; in the data active = activation above about 40%;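 note: 0% = vehicle and 100% = reference agonist at the receptor; some compounds past the cut are filed as inactive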
NPYLR7 ag max-min: recorded beside NPYLR7 ag, whose call it bears; activation, %; measured here: Max-Min RFU normalised activation; some inactives read as strong as hits;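 span of the calcium signal over five minutes; 0% = vehicle and 100% = native peptide agonist; compound fluorescence can raise it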
Starred values were filed as active, the others as inactive; & = joins results of further samples.

Sample of the layout:
SMILES	NPYLR7 ag	NPYLR7 ag max-min
Cc1ccc(C(=O)NCC(=O)NC2CCCOC2)s1 (stereo unspecified)	0	-4
CCC(CO)N(Cc1ccsc1)C(=O)c1c[nH]c(=O)cn1 (stereo unspecified)	-5	-8
O=C1CN(C(=O)C2CC2)CC(O)CN1CCCc1ccccc1 (stereo unspecified)	17	14
Cc1ccc(-c2cc3c(=O)n(CC(=O)Nc4ccc5c(c4)OCCO5)ncn3n2)cc1C	-8	-11
Nc1cccc(-c2cccc(-c3ccc4c(c3)OCCO4)n2)c1	0	7
CCN(C(=O)COc1ccc(S(N)(=O)=O)cc1)C1=CCCCC1	7	5
O=C(Nc1cc2c(cc1Cl)C(=O)c1ccccc1C2=O)c1ccco1	-8	-12

Main list, previewed entries included:
SMILES	NPYLR7 ag	NPYLR7 ag max-min
Cc1ccc(C(=O)NCC(=O)NC2CCCOC2)s1 (stereo unspecified)	0	-4
CCC(CO)N(Cc1ccsc1)C(=O)c1c[nH]c(=O)cn1 (stereo unspecified)	-5	-8
O=C1CN(C(=O)C2CC2)CC(O)CN1CCCc1ccccc1 (stereo unspecified)	17	14
Cc1ccc(-c2cc3c(=O)n(CC(=O)Nc4ccc5c(c4)OCCO5)ncn3n2)cc1C	-8	-11
Nc1cccc(-c2cccc(-c3ccc4c(c3)OCCO4)n2)c1	0	7
CCN(C(=O)COc1ccc(S(N)(=O)=O)cc1)C1=CCCCC1	7	5
O=C(Nc1cc2c(cc1Cl)C(=O)c1ccccc1C2=O)c1ccco1	-8	-12
C=CCNc1ccccc1C(=O)N(C)CC1CCCCN1C (stereo unspecified)	5&-9	-1&-19
CCOC(=O)c1c(N)oc2c(Br)c3c(C(=O)OCC)c(N)oc3c(Br)c12	3	1
Cc1nn(C)c(C)c1CN(C(=O)c1cc2ncccn2n1)C1CC1	-1	-5
CC(C)(C)Nc1c(-c2ccccc2F)nc2ccc(Br)cn12	31	29
Cc1cccc(C(=O)N2CCN(C(C(=O)N3CCSCC3)C3CCCC3)CC2)c1 (stereo unspecified)	2	43
Cc1ccccc1COC(=O)c1nnn(-c2ccc(Br)cc2)c1C	8	-4
Cc1nn(S(=O)(=O)c2ccc(Cl)cc2)c(C)c1S(=O)(=O)N1CCCC1	5	2
O=C1CCCCN1CC(=O)N1CCCC(Nc2ccc(F)cc2)C1 (stereo unspecified)	-4	-5
O=c1c2ccccc2ncn1Cc1noc(-c2ccco2)n1	-11	-11
Nc1nnc(SCC(=O)N2CCOCC2)s1	23	19
CC(=O)c1cccc(NC(=O)N[C@@H](Cc2ccccc2)C(=O)N2CCC(C(=O)N3CCCCC3)CC2)c1	3	-2
COCc1ccc(C(=O)NCc2csc3c2CCCC3)o1	1	1
CN(C1CCC(CO)CC1)S(=O)(=O)/C=C/c1ccccc1 (stereo unspecified)	-25	-22
Cc1nn(-c2ccccc2)c2c1C(c1ccccc1)N(CC(C)N)C2=O (stereo unspecified)	1	-1
CC1=C(C(=O)N2CCCCC2C(=O)Nc2ccc(-n3nc(C)cc3C)cc2)OCCO1 (stereo unspecified)	7	-5
CCCCCCCCC(=O)Nc1ccc(N2CCCC2)c(C(=O)NC(C)CC)c1 (stereo unspecified)	-2	7
COc1cc(C(=O)NNC(=O)c2cccnc2)cc(OC)c1OC	12	8
CCOc1ccccc1C(=O)Nc1ccc(N2CCN(S(=O)(=O)c3cc(OC)ccc3OC)CC2)nc1	20	11

Next records.
SMILES	NPYLR7 ag	NPYLR7 ag max-min
Cc1cccc(OCCSc2nc3ccccc3n2CC(O)CO)c1 (stereo unspecified)	1	-2
COCCCN(CC(=O)N(CCc1ccc(OC)c(OC)c1)Cc1ccco1)C(=O)c1cccc(Br)c1	13	10
O=C(Nc1ccc(Cl)c(Cl)c1)c1nn2c(C(F)(F)F)cc(-c3ccc(Br)cc3)nc2c1Cl	15	13
COC(=O)CCCC(=O)N1CCCC(Nc2ccc(C(C)C)cc2)C1 (stereo unspecified)	3	-1
Cc1nn(-c2ccc(F)cc2)c(C)c1CNC(C)Cn1ccnc1 (stereo unspecified)	4	6
COc1ccc(OC)c(NC(=O)CSc2nc(=O)n(N3CCN(C)CC3)c3c2CCC3)c1	-4	-10
CC(=NNC(=S)NC(C)C)c1ccc[nH]1	4	5
COc1ccc(CCN(C)c2cc(C)nc(SCc3ccc(C(=O)N4CCN(C(C)=O)CC4)cc3)n2)cc1OC	-12	-8
O=C1CCC(C(=O)NCc2cccnc2Oc2cccc(C(F)(F)F)c2)CN1 (stereo unspecified)	0	1
Cc1nc2n(n1)C(=O)C(C(c1ccc(C(C)C)cc1)N1CCCCC1)S2 (stereo unspecified)	5	-1
O=C(CN1C(=O)C(Oc2ccccc2)C1c1ccncc1)N1CCCCC1C1CCCO1 (stereo unspecified)	9	7
CC1=NN(C(=O)CCCCC(=O)N2N=C(C)CC2(O)C(F)(F)F)C(O)(C(F)(F)F)C1 (stereo unspecified)	-7	-15
O=C(NCc1ccc(N2CCCC2)cc1)c1cc(F)c(F)cc1Cl	20	17
NC1=NC(=O)/C(=C\c2ccccc2Br)S1	-9	-19
Cc1nc2scc(C)n2c(=O)c1NC(=O)c1ccc(S(N)(=O)=O)cc1	15	6
Cc1ccnc(N2CCC(N3CCCC(C(=O)N4CCOCC4)C3)CC2)n1 (stereo unspecified)	6	0
CC(C)(C)c1ccnc2nc(N3CCN(S(=O)(=O)c4cccc(F)c4)CC3)nn12	4	19
O=c1[nH]cccc1-c1ccc2c(c1)OCCO2	1	-2
Cc1cccc(OC2CN(Cc3cnc(-c4ccccn4)nc3)C2)c1	-1	-4
CCOC(=O)c1c(Nc2ccccc2N)cc(C)nc1C	2	1
O=C(CCSc1nnc2ccc3ccccc3n12)Nc1ccc(F)cc1	-1	2
CCOC(=O)CNC(=O)Cn1cnc2c(nnn2C)c1=O	0	7
CCOC(=O)Nc1ccc(Nc2ncccc2C#N)cc1	6	3
O=C(CSc1nnc2ccccn12)Nc1ccc([N+](=O)[O-])cc1Cl	-4	-7
COc1cc(-c2nn(CN3CC(C)OC(C)C3)c(=S)o2)cc(OC)c1OC (stereo unspecified)	8	5

Individual results from the list:
O=c1[nH]cccc1-c1ccc2c(c1)OCCO2 @ NPYLR7 ag = 1
NC1=NC(=O)/C(=C\c2ccccc2Br)S1 @ NPYLR7 ag = -9

Next entries follow:
SMILES	NPYLR7 ag	NPYLR7 ag max-min
COc1ccc(OC)c(S(=O)(=O)N(C)Cc2nccn2C(F)F)c1	8	4
CCCCCCCCn1ccc(=O)n(C(C)(C)C)c1=O	-9	-13
CC(NC(=O)c1ccc2c(c1)OCCCO2)c1ccc(F)c(Cl)c1 (stereo unspecified)	1	7
Cc1cc(C)nc(Oc2ccc(Br)cc2Br)n1	3	1
Cc1csc2nc(O)c(C(=O)NCCCN3CCOCC3)c(=O)n12	-1	41
CC(C)SC(NC(=O)OCc1ccccc1)C(=O)NCCCN1CCCC1=O (stereo unspecified)	-5	-13
COc1ccc(C(=O)N2CCCC(OCc3cccc(F)c3F)C2)cc1 (stereo unspecified)	-5	15
C=CCN(CC(=O)N1CCc2sccc2C1COc1cccc(F)c1)CC(O)Cc1ccccc1 (stereo unspecified)	18	16
C/C(=N/Nc1ccc2nnc(C)n2n1)c1ccc(F)cc1	-10	-14
COC(=O)C1CCN(C(c2ccc(F)c(F)c2)C2Sc3nc(C)nn3C2=O)CC1 (stereo unspecified)	1	-1
COc1ccc(CN(C)CCC(=O)N2CCN(c3ccccn3)CC2)cc1F	-1	-4
O=S(=O)(N=C(Nc1ccc(Br)cc1)C(F)(F)F)c1ccccc1	8	3
CCc1ccc(C(=O)N2CCN(c3c(-c4ccccc4)cnc4ncnn34)CC2)cc1	27	19
Clc1ccc(Cl)c(OCc2nnc(-c3ccco3)o2)c1	-1	0
CC(Oc1ccccc1)C(=O)N1CCN(C(=O)c2cn(C)cc3c(=O)n(-c4ccccc4)nc2-3)CC1 (stereo unspecified)	0	-1
O=C(O)[C@H]1C[C@H](C(=O)NC2CC2)CN(Cc2cccc(C(F)(F)F)c2)C1	-5	-6
COc1ccccc1N1CCN(C(=O)c2cccnc2SCc2ccccc2C)CC1	2	0
Cc1nnc(SCCNC(=O)c2cn[nH]n2)s1	0	-9
O=C(COc1ccc(Cl)cc1Cl)NN=Cc1c[nH]c2ccccc12	-1	-4
Cc1nn(S(=O)(=O)c2ccc(F)cc2)c(C)c1S(=O)(=O)N(C)c1ccccc1	3	2
CC(C)OCCCNC(CC(=O)Nc1ccc(Oc2ccccc2)cc1)C(=O)O (stereo unspecified)	-5	-7
Cc1ccc(C(CN2CCOCC2)NC(=O)COc2cccc(C)c2)cc1 (stereo unspecified)	7	6
COc1ccc2c(c1)CC(NCC1CCN(C(=O)C(C)C)CC1)CC2 (stereo unspecified)	21	10
O=c1c(-c2ccccc2)coc2cc(O)cc(O)c12	-11	-13
CC(C)Cc1cnc2c(c1SCc1ccc([N+](=O)[O-])cc1)c(=O)n(C)c(=O)n2C	7	5

Arranged by SMILES length (descending): 3 of the compounds above
SMILES	NPYLR7 ag	NPYLR7 ag max-min
CC(Oc1ccccc1)C(=O)N1CCN(C(=O)c2cn(C)cc3c(=O)n(-c4ccccc4)nc2-3)CC1 (stereo unspecified)	0	-1
CC(C)Cc1cnc2c(c1SCc1ccc([N+](=O)[O-])cc1)c(=O)n(C)c(=O)n2C	7	5
CCN(C(=O)COc1ccc(S(N)(=O)=O)cc1)C1=CCCCC1	7	5

Next structures
SMILES	NPYLR7 ag	NPYLR7 ag max-min
Cc1nc2ccccc2nc1CN1CCN(Cc2ccc(F)c(F)c2)C(CCO)C1 (stereo unspecified)	-2	-4
COCC(=O)Nc1ccc(N2CCN(C(=O)c3c(C)noc3C)CC2)nc1	-19	-20
O=C1N(c2cccc(F)c2)c2ncccc2S(=O)(=O)N1Cc1ccccc1	-7	-7
CN1CCN(c2nc3ccccc3n3cnnc23)CC1	8	5
COc1ccc(CN(Cc2nc3cc(C)ccc3o2)C(=O)c2cnn(-c3ccccc3)c2C(F)(F)F)cc1	9	1
Cc1ccc(-c2nc(CN3N=NC4C(=O)N(c5ccc(Cl)cc5)C(=O)C43)c(C)o2)cc1 (stereo unspecified)	6	-2
Cc1nc(N2CCC(S(N)(=O)=O)C2)c2cc[nH]c2n1 (stereo unspecified)	-9	-13
CCCCCCCCCC(=O)Nc1ccc(N(C)C)c(C(=O)N2CCCC2)c1	16	15
CSc1nnc(CCCN)n1CC(C)C	-2	-2
COC(C)c1n[nH]c(=O)n1CCC(=O)O (stereo unspecified)	23	21
COc1ccc(CN(Cc2ccco2)CC(O)COc2ccccc2C)cc1 (stereo unspecified)	20	31
Cc1ccccc1-c1csc(=O)n1CN1CCSCC1	11	5
COc1ccc(C(=O)Nc2ccc(-n3nc(OC)nc3-c3ccc(C(F)(F)F)cc3)cc2)cc1	14	11
O=C(c1ccccc1OC(F)(F)F)N1CCN(c2nccc(-c3ccc4c(c3)OCO4)n2)CC1	2	0
CCOC(=O)/C=C/c1c(C)n(C(=O)c2ccccc2)c(=O)n(C(=O)c2ccccc2)c1=O	-3	24
CCOC(=O)CNc1c(-c2ccccc2O)nc2cc(C)ccn12	4	5
Cc1cc(C)c(OCC(=O)NC(C)c2ccc(-n3ccnc3)cc2)c(C)c1 (stereo unspecified)	-18	-19
CC(NC(=O)c1cc(NC(=O)c2ccccc2Br)ccc1N1CCCC1)c1ccccc1 (stereo unspecified)	2	11
CCOc1cccc(OCCCOc2ccccc2C(C)=O)c1	-6	12
COc1cc(OC)cc(C(=O)Nc2ccc(-n3nc(OC)nc3-c3ccccc3C)cc2)c1	19	18
Cc1ccc(NC(=O)N(Cc2ccccc2)Cc2cccn2Cc2ccccc2C)cc1	0	9
Cc1cc(C(=O)Nc2c(C)c(C(C)(C)C)nn2-c2ccccc2)on1	-13	-15
Cc1cc(C(=O)N/N=C\c2ccc3c(c2)OCO3)c2ccccc2n1	2	7
FC(F)(F)c1cccc(-n2cnc3cnc(-c4ccsc4)cc32)c1	9	0
Cc1ccc(-c2nc(C)c(C(C)C)c(N3CCN(C(=O)c4ccc(C)c([N+](=O)[O-])c4)CC3)n2)cc1	-5	-1

The final 2 compounds of the section before come first, to join the parts:
SMILES	NPYLR7 ag	NPYLR7 ag max-min
FC(F)(F)c1cccc(-n2cnc3cnc(-c4ccsc4)cc32)c1	9	0
Cc1ccc(-c2nc(C)c(C(C)C)c(N3CCN(C(=O)c4ccc(C)c([N+](=O)[O-])c4)CC3)n2)cc1	-5	-1
COc1ccc2cc(C3CN(Cc4cscn4)CCO3)ccc2c1 (stereo unspecified)	2	-5
COC(=O)C[C@H]1[C@]2(C)C[C@@]34OC5(C)OC6(C(OC(C)=O)[C@@]3(OC(C)=O)[C@H]2OC(C)=O)C2CC(=O)O[C@@H](c3ccoc3)[C@]2(C)CCC6(O5)[C@]14C (stereo partly specified)	-4	-8
CC(=O)N1N=C(c2ccncc2)OC1C(=O)NCC12CC3CC(CC(C3)C1)C2 (stereo unspecified)	14	6
Fc1cccc(-c2ccc3c(c2)CCN3)c1	12	9
CCOC(=O)N1CCN(Cc2nc(-c3cc4c(cc3Cl)OCO4)oc2C)CC1	15	3
Cn1c(=O)c2ccccc2n2c(SCc3ccccn3)nnc12	17	11
C=CCOC(CN1CCN(C(=O)c2ccc(OC)cc2OC)CC1)c1cccc(N2CCCC2)c1 (stereo unspecified)	-5	-4
Cc1cccc(Cn2c(N3CCN(CCO)CC3)nc3c2c(=O)[nH]c(=O)n3C)c1	3	-1
O=C1C2C(c3ccccc3)C=CC(c3ccccc3)C2C(=O)N1c1ccc(F)cc1 (stereo unspecified)	6	4
O=C(CSc1nnc(CNC(=O)c2ccco2)n1-c1ccc([N+](=O)[O-])cc1)c1ccccc1	-6	-11
Cc1cccn2c(CNC(=O)c3cccc(Cn4cccn4)c3)cnc12	-6	-8
CCc1nc2ccccc2n1CCC(=O)N1CCCC(Nc2ccccc2)C1 (stereo unspecified)	6	8
CN(c1ccsc1C(=O)N1CCOCC1)S(=O)(=O)c1ccc(C(C)(C)C)cc1	2	1
O=C(NCC1CCCO1)C(C1CCCC1)N1CCN(C(=O)Nc2cccc(Cl)c2)CC1 (stereo unspecified)	-7	-3
Cc1nnc(SCC(=O)Nc2ccccc2)s1	10	8
CC(c1ccc(Cl)cc1Cl)N(C)C(=O)c1ccc(S(=O)C(C)C)cc1 (stereo unspecified)	2	1

Only part of the results is shown (hit frequency here may not be typical).
